Mtb bLac sens: beta-lactam sensitization of Mtb H37Rv | M. tuberculosis H37Rv growth with meropenem, percent inhibition; hits of this screen are not shown here | inhibition, % at 25 µM | 330,000 tested, 0.27% active;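 active = about 74% or more and at least 40 points above the plate without the antibiotic, then above 30% in a dose series; inconclusive = first-round hits that could not be retested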;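 note: growth measured after seven days incubation then overnight dye step; 0% = bacteria only wells and 100% = bacteria with antibiotic; twin plates without the antibiotic show which effects depend on it; some results filed as inactive read as strong as hits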
Arbovirus inh: antivirals against arbovirus infection; arbovirus infection cell-based antiviral screen; inhibition, % at 10 µM; 200,000 tested, 0.37% active;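 active = inhibition from about 30%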;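 note: bluetongue infection of BSR cells; cell survival read as ATP light after 72 h; 0% = infected wells without compound and 100% = uninfected wells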
RecA intein inh: Mtb RecA intein splicing inhibition; P9WHJ3; cell-free RecA intein splicing, fluorescence; inhibition, %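 (about 9 µM by stock and volumes)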; 290,000 tested, 0.75% active; AID 2221; in the data active = inhibition above about 30%; inconclusive = no clear call, values can overlap the other calls;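 note: 0% = vehicle wells and 100% = reference inhibitor control wells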
Target sequence (P9WHJ3 whole entry, looked up): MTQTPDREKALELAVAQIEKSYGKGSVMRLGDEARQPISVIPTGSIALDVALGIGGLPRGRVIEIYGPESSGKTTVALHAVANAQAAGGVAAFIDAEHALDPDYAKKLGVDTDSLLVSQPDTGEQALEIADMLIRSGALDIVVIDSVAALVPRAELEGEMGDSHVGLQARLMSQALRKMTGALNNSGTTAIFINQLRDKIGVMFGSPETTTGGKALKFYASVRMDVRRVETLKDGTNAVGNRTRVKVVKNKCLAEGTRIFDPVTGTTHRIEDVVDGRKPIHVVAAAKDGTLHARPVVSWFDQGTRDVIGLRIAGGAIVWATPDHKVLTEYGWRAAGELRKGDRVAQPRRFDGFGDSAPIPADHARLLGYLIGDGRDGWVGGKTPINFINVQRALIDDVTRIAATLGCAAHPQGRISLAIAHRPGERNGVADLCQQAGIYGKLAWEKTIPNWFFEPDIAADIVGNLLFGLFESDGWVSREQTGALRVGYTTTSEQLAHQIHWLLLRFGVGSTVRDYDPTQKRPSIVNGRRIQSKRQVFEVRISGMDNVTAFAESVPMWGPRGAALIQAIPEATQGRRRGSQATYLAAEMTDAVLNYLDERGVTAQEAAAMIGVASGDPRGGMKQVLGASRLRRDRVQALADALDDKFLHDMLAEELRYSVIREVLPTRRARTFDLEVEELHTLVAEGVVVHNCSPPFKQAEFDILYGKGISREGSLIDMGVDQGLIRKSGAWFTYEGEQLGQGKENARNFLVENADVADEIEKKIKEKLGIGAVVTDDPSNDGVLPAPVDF
YopH PTP inh: blocks Yersinia enterocolitica YopH tyrosine phosphatase | AID 898 | inhibition, %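 (about 10 µM by stock and volumes)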 | fluorescence Ex485/Em525 | 140,000 tested, 0.16% active;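 active = inhibition of 50% or more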;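 note: controls were vehicle for no effect and minimum signal wells for full effect; inactives centre near -20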
Mtb H37Rv: M. tuberculosis H37Rv growth inhibitors, H37Rv strain (AID 1626) | 220,000 tested, 0.95% active | M. tuberculosis H37Rv growth inhibition; higher % means a stronger effect | inhibition, % at 10 µM; hits with a dose series show IC50 in µM;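 active = confirmed in a dose series; inconclusive = inhibition above 80% but not taken into the dose series; inactive = below 80% or under 30% at every dose of the series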;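 note: bacteria incubated seven days before Alamar blue readout; 0% = bacteria only wells and 100% = bacteria with antibiotic wells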
Arbovirus inh repeat: also measured in Arbovirus inh; calls as there; inhibition, %; measured here: 10K subset replicate screen; many hits read low in the repeat;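 first of two repeat runs on a subset; 0% = infected and 100% = uninfected wells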
* = called active by the depositor; ? = inconclusive; . = not tested or not shown. Not all compounds are listed; rates above refer to the full screens.

SMILES	Mtb bLac sens	Arbovirus inh	RecA intein inh	YopH PTP inh	Mtb H37Rv	others
O=C1CN(C(=O)c2ccco2)c2ccccc2N1	2.3	11.8	-2.1	-45.6	-5.3%
CCOc1ccc(-c2cc(C)[n+](CCN(CC)CC)c(-c3ccc(OCC)cc3)c2)cc1	80.2	.	.	.	6.7%
COc1ccc(NC(=O)CN(C)C(=O)Cc2ccc3c(c2)CCC3)cc1	-5.1	.	0.5	.	.
O=C(c1ccc(Nc2cccc(C(F)(F)F)c2)nc1)N1CCCC1	0.1	-15.3	-1.4	-0.1	14.5%
Cc1ccc(CNS(=O)(=O)c2ccc3oc(C(=O)O)c(C)c3c2)cc1	-8.5	6.6	1.6	-7.1	-7.4%
COc1ccccc1N1CCN(C(=S)Nc2ccc(S(=O)(=O)N3CCOCC3)cc2)CC1	2.4	1.9	-1.1	.	3.3%
Cc1ccccc1OCc1nnc2c3cnn(C)c3ncn12	0.0	-1.2	0.6	-15.5	.
CCOC(=O)C1(C(F)(F)F)N=C(c2cccnc2)OC(N2CCCCC2)=N1 (centres undefined)	7.9	-3.6	-0.8	-7.8	-4.5%
COc1cccc(CNc2ccc([N+](=O)[O-])cc2C)c1	-2.1	5.2	0.4	.	0.9%
O=C(CCc1c[nH]c2ccccc12)OCC(=O)N1CCN(S(=O)(=O)c2ccccc2)CC1	2.5	.	-4.0	.	.
COc1cc(/C=C/C(=O)Nc2cc(C(F)(F)F)ccc2Cl)cc(OC)c1OC	0.3	-1.4	4.5	-6.6	20.7%
Cc1ccc(NC(=O)[C@H](Cc2ccccc2)NC(=O)[C@@H]2Cc3ccccc3CN2)c(C)c1	-6.7	.	-0.7	.	.
CC(C)Nc1nnc(SCc2cc(=O)n3ccsc3n2)s1	5.1	14.4	-1.7	.	3.1%
CCOC(=O)C1=C(COC(=O)CCOc2ccc(C)cc2)NC(=O)NC1C (centres undefined)	-1.2	.	-0.1	.	.
Cc1cc2oc(=O)cc(COC(=O)c3n[nH]c4ccccc34)c2cc1C	-1.6	3.6	-7.2	6.0	.
COc1ccc(S(=O)(=O)NNC(=O)Nc2ccc(C)cc2)c(OC)c1	-1.5	.	0.9	.	.
CC(C)CN(C(=O)c1cc2ccccc2o1)c1c(N)n(CC(C)C)c(=O)[nH]c1=O	-6.5	-3.5	-4.7	16.4	-1.6%
CCN(CC)C(=O)CC(c1ccc2c(c1)OCO2)c1c(OC)cc(OC)c2ccc(=O)oc12 (centres undefined)	-1.4	.	1.8	.	-4.0%
CCc1nnc(NC(=O)CCC(=O)NC2CCCCC2)s1	-8.5	-1.2	-3.3	-7.6	-2.6%
COc1ccc(NC(=O)Nc2nnc(Cc3ccc(F)cc3)s2)cc1	2.8	.	2.4	.	.
CCOC(=O)CC(NCc1ccc(OC)c(OCC)c1)c1ccc(C)cc1 (centres undefined)	-6.4	4.5	2.8	.	2.0%
O=C(Nc1ccccc1)N1CCCC(CNS(=O)(=O)Cc2ccccc2)C1 (centres undefined)	-1.1	-3.8	0.1	.	-4.1%
CN(C)c1cc[n+](CC(=O)Nc2cc(C(F)(F)F)ccc2Cl)cc1	5.9	6.9	0.4	-31.9	-3.9%
CCOc1ccc(CC2NCCc3cc(OCC)c(OCC)cc32)cc1OCC (centres undefined)	27.4	-0.9	1.8	.	0.1%
COc1cc(/C=C/C(=O)c2ccc(C)c([N+](=O)[O-])c2)cc(OC)c1O	5.5	-34.4	-5.0	-19.1	9.8%

Brought forward from above: 2 entries, then new ones.
SMILES	Mtb bLac sens	Arbovirus inh	RecA intein inh	YopH PTP inh	Mtb H37Rv	others
CCOc1ccc(CC2NCCc3cc(OCC)c(OCC)cc32)cc1OCC (centres undefined)	27.4	-0.9	1.8	.	0.1%
COc1cc(/C=C/C(=O)c2ccc(C)c([N+](=O)[O-])c2)cc(OC)c1O	5.5	-34.4	-5.0	-19.1	9.8%
CCCCCC(=O)Nc1ccc(N2CCN(S(C)(=O)=O)CC2)cc1	12.0	-0.5	-6.8	-25.9	2.1%
CCOc1ccc(N2C(=O)C3CC(C)=C(C)CC3C2=O)c([N+](=O)[O-])c1 (centres undefined)	-13.1	-5.7	-6.9	-23.4	-5.4%
CCC(C)NC(=O)c1ccc(CNS(=O)(=O)c2ccc3c(c2)C(C)(C)C(=O)N3C)cc1 (centres undefined)	-8.9	.	-0.4	.	.
Cc1cc(C)c(Nc2ncccc2C(=O)O)c(C)c1	-3.7	1.5	-0.5	.	1.3%
COc1cc(CN2CCC(C(N)=O)CC2)ccc1OCc1ccccc1	5.3	.	-0.8	.	.
Cc1nnc(SCC(=O)Nc2ccc(N3CCN(S(C)(=O)=O)CC3)cc2)o1	-1.1	.	-2.2	.	.
Cn1c(=O)[nH]c(=O)c2c1nc1n2CCS1	-3.9	1.3	2.3	.	1.8%
COc1cc(C(CC(=O)Nc2cccc(C)n2)N2Cc3ccccc3C2=O)cc(OC)c1OC (centres undefined)	8.3	.	-2.5	.	.
CSc1cccc(N2CC(C(=O)NCCN3C(=O)S/C(=C\c4cccnc4)C3=O)CC2=O)c1 (centres undefined)	-5.2	.	0.2	.	.
CC(CCN1CCN(c2ccccn2)CC1)c1ccccc1 (centres undefined)	0.5	.	-1.0	.	.
COc1ccc(N(C(C)C(=O)N/N=C/c2cccnc2)S(C)(=O)=O)cc1 (centres undefined)	1.7	6.4	-1.0	.	-9.3%
O=C(Nc1ccc2c(c1)OCCO2)Nc1ccc2c(c1)OCO2	-5.3	-16.8	4.2	.	6.0%
CCn1c(C(=O)NC(C)c2ccc3c(c2)OCCO3)cc2sccc21 (centres undefined)	-4.9	9.5	8.8	-25.1	5.7%	Arbovirus inh repeat=3.8
COc1ccccc1/C=C/C1=NC(=C\C=C/c2ccccc2)/C(=O)O1	98.8	21.4	5.6	9.1	6.2%
COC(=O)/C(N=Nc1cccc(C(F)(F)F)c1)=C(\C)O	-17.4	0.4	-0.5	-32.3	3.5%
COc1ccc(CN2C(=O)NC(=O)/C(=C/c3ccc([N+](=O)[O-])o3)C2=O)cc1	.	8.0	.	.	0.6%
CCC(C)(CCNC(=O)Cc1ccccc1)c1ccccc1OC (centres undefined)	-7.7	.	10.8	.	.
Cc1noc(C)c1CSc1ccc2ccccc2n1	6.0	-9.9	5.7	-6.1	0.3%
COc1cccc(-c2cc3nc4c(c(NCC(C)(C)CN(C)C)n3n2)CCCC4)c1	93.8	-29.8	0.9	.	0.6%
CC1CCCN(c2ccc(N)cc2C(N)=O)C1 (centres undefined)	-1.3	-17.9	-10.8	.	-2.3%
NC(=O)[C@@H]1CCCN1Cc1nc(-c2ccccc2)no1	-3.5	-3.4	-1.9	.	-9.0%
Cc1cc(C(=O)NP(=O)(N2CC(C)OC(C)C2)N2CC(C)OC(C)C2)c(C)n1C1CC1 (centres undefined)	-6.2	18.8	1.2	.	-4.0%
COc1ccc2c(c1)c(C(=O)CNc1nc(C)cs1)c(C)n2C	20.7	-8.3	-0.1	-33.5	10.0%
CCOc1ccccc1NC(=O)c1cc(C(=O)c2cc(OC)ccc2O)coc1=N	-0.6	-20.9	-2.5	-26.0	-0.4%
COc1ccc(-n2cnnc2SCC(=O)N2CCN(c3ccccc3)CC2)cc1	-9.8	2.0	-0.6	9.2	0.2%

Reprinted from the part before: seven compounds, followed by the next part.
SMILES	Mtb bLac sens	Arbovirus inh	RecA intein inh	YopH PTP inh	Mtb H37Rv	others
COc1cccc(-c2cc3nc4c(c(NCC(C)(C)CN(C)C)n3n2)CCCC4)c1	93.8	-29.8	0.9	.	0.6%
CC1CCCN(c2ccc(N)cc2C(N)=O)C1 (centres undefined)	-1.3	-17.9	-10.8	.	-2.3%
NC(=O)[C@@H]1CCCN1Cc1nc(-c2ccccc2)no1	-3.5	-3.4	-1.9	.	-9.0%
Cc1cc(C(=O)NP(=O)(N2CC(C)OC(C)C2)N2CC(C)OC(C)C2)c(C)n1C1CC1 (centres undefined)	-6.2	18.8	1.2	.	-4.0%
COc1ccc2c(c1)c(C(=O)CNc1nc(C)cs1)c(C)n2C	20.7	-8.3	-0.1	-33.5	10.0%
CCOc1ccccc1NC(=O)c1cc(C(=O)c2cc(OC)ccc2O)coc1=N	-0.6	-20.9	-2.5	-26.0	-0.4%
COc1ccc(-n2cnnc2SCC(=O)N2CCN(c3ccccc3)CC2)cc1	-9.8	2.0	-0.6	9.2	0.2%
O=C(NCCNc1ccccc1[N+](=O)[O-])c1cc(F)c(F)cc1Cl	0.3	.	-1.0	.	.
CCCOC(=O)NC1C(NC(=O)OCCC)N(C)C(=O)N1C (centres undefined)	-4.9	7.8	-1.5	-34.1	0.9%
Cc1ccc(C(=O)NN2C(=O)C3C4C=CC(C5CC45)C3C2=O)cc1 (centres undefined)	-7.1	10.3	-1.1	.	0.8%
NS(=O)(=O)c1ccc(CNC(=O)c2cccnc2Cl)cc1	3.1	.	0.7	.	.
O=C(Nc1ccc(C(F)(F)F)cc1)c1ccc(NC(=O)C2CCCO2)cc1 (centres undefined)	1.8	.	0.5	.	.
CCC(C(=O)N1CCN(S(C)(=O)=O)CC1)c1ccccc1 (centres undefined)	-5.1	0.7	3.7	-20.8	-3.5%
CC(C)c1ccc(CN(C(=O)c2cc3ccccc3oc2=O)C2CCS(=O)(=O)C2)cc1 (centres undefined)	?	-10.2	1.2	-9.2	13.5%
CC1CN(Cc2nc3ccccc3c(=O)[nH]2)CC(C)O1 (centres undefined)	-4.2	2.6	-2.5	.	-4.9%
CS(=O)(=O)N(CC(=O)N1CCCC1)c1ccc(Cl)cc1Cl	3.6	.	-1.0	.	.
COc1ccc(CCC(=O)NCC(=O)OCc2ccccc2)cc1	6.5	.	-2.0	.	.
c1ccc2c(c1)CSc1ccccc1N2	7.7	.	2.8	.	.
COc1ccc(C(CC(=O)N2CCCCC2)c2c(O)cc(OC)cc2OC)cc1 (centres undefined)	-3.4	.	-0.3	.	19.2%
Cc1ccc(CSCc2ccc(C(=O)NCCCN3CCOCC3)o2)cc1	-2.4	5.8	-3.5	.	10.3%
COc1cc(C2CC(=O)N3CN(Cc4ccco4)CSC3=C2C#N)ccc1OCc1ccccc1 (centres undefined)	1.7	4.4	16.2	-67.6	-5.3%	Arbovirus inh repeat=3.6
CC(c1ccccn1)N(C)C(=O)c1ccc2nc(Cc3cccc(Cl)c3)oc2c1 (centres undefined)	24.6	.	3.6	.	.
CCNC(=S)NNC(=O)c1ccccn1	48.2	-18.3	-5.1	2.9	8.7%
CC1CCCCC1NC(=O)CSc1nnnn1-c1ccccc1 (centres undefined)	-9.3	3.6	0.1	-7.3	1.2%
O=C(Cn1c(=O)[nH]c2ccsc2c1=O)NC1CCCCCC1	3.9	2.7	-2.8	41.3	-2.2%	Arbovirus inh repeat=-2.3
CC(=O)NS(=O)(=O)c1ccc(NC(=O)/C=C/c2cn(-c3ccccc3)nc2-c2ccccc2)cc1	36.0	6.4	0.0	-15.2	2.9%
CC(C)n1c(C(O)c2ccccc2)nc2ccccc21 (centres undefined)	-4.0	17.3	-1.1	4.7	-7.3%	Arbovirus inh repeat=10.8
CCOC(=O)C1CCN(Cc2ccc(Cl)c(Cl)c2)CC1	6.2	3.0	0.5	11.1	16.3%
CCCOCn1cc(F)c(=O)[nH]c1=O	-2.8	-5.1	-1.9	-15.4	10.5%
O=c1c2ccccc2nc(-c2ccco2)n1-c1ccncc1	-11.7	1.3	0.6	-40.4	3.6%	Arbovirus inh repeat=3.7
CCOc1ccc(/C(O)=C2/C(=O)C(=O)N(CCOCCO)C2c2ccccn2)cc1 (centres undefined)	12.5	-1.9	1.2	-57.5	-10.3%

Some of these compounds in order of heavy-atom count, descending:
SMILES	Mtb bLac sens	Arbovirus inh	RecA intein inh	YopH PTP inh	Mtb H37Rv	others
CC(c1ccccn1)N(C)C(=O)c1ccc2nc(Cc3cccc(Cl)c3)oc2c1 (centres undefined)	24.6	.	3.6	.	.
O=C(NCCNc1ccccc1[N+](=O)[O-])c1cc(F)c(F)cc1Cl	0.3	.	-1.0	.	.
O=c1c2ccccc2nc(-c2ccco2)n1-c1ccncc1	-11.7	1.3	0.6	-40.4	3.6%	Arbovirus inh repeat=3.7

Pulled by compound from above, two records:
SMILES	Mtb bLac sens	Arbovirus inh	RecA intein inh	YopH PTP inh	Mtb H37Rv	others
O=C(Cn1c(=O)[nH]c2ccsc2c1=O)NC1CCCCCC1	3.9	2.7	-2.8	41.3	-2.2%	Arbovirus inh repeat=-2.3
O=C(NCCNc1ccccc1[N+](=O)[O-])c1cc(F)c(F)cc1Cl	0.3	.	-1.0	.	.
